# Bioassay records as filed in PubChem.
# KSHV LANA nucl: inhibitors of KSHV LANA binding to nucleosomes. FITC-LANA1-23 / chicken nucleosome fluorescence polarization; hits give low values. z-score (concentration not given with the values). hit rate 0.3% among 51,000. AID 720717;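 active = both repeat wells score below -2 in polarization z-score versus plate sample wells, excluding overly bright wells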;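 also: 100 nL library stock added to about 30 µL; numbers are from one replicate; some results filed as inactive read as strong as hits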
#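 test system = FITC-LANA peptide and chicken nucleosomes | amount = 240 nM purified chicken nucleosomes (480 nM peptide binding sites), final | reagent = 50 nM FITC-LANA1-23 probe | medium = TEN-BT buffer, pH 7.5 | doses = single compound addition by pin transfer, 100 nL per well | timing = 10–45 min, room temperature | detection = fluorescence polarization | repeats = duplicate plates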
# Ab BasE inh: inhibitors of Acinetobacter baumannii siderophore enzyme BasE; purified BasE, fluorescence polarization binding displacement; inhibition, % (no concentration beside the values); hit rate 0.1% among 84,000; AID 485350;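 active = both replicates above 25% with normal brightness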;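 also: 0% = negative plate control signal and 100% = positive plate control signal; stock transfer was 100 nL into about 30 µL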
# Active calls of the source: *; . = not tested or not shown. This is a subset; rates above refer to the full screens.
cpd	Compound	KSHV LANA nucl	Ab BasE inh
1	COC(=O)c1cc(C(=O)c2ccc(Cl)cc2Cl)cn1C	1.9	.
2	CCN(CC)S(=O)(=O)c1ccc(N=Nc2c(O)[nH]c(=S)[nH]c2=O)cc1	1.1	-0.8
3	NNC(=O)c1cncc(C#Cc2ccccc2)c1	.	-0.9
4	Cc1nnc(SCc2nc3ccccc3c(=O)[nH]2)n1C1CC1	.	2.2
5	COc1ccc(Cl)cc1NC(=O)CSC1CCCC1	.	1.6
6	CC(C)(CCO)NC(=S)NC1CC2C=CC1C2 (stereo unspecified)	.	-1.4
7	CC1CCc2cc(F)ccc2N1C(=O)c1ccc(=O)[nH]n1 (stereo unspecified)	-1.4	0.1
8	Cc1cc(C(=O)CSc2ccccn2)c(C)n1Cc1cccs1	.	0.6
9	O=C(Cn1nnc(-c2ccc(F)cc2)n1)NCCN1C(=O)CSC1=O	.	1.2
10	COc1ccc(-n2c(=O)c3ccccc3n(CC(=O)NC3CCCC3)c2=O)cc1	0.42	0.4
11	OC1CCN(Cc2ccc(F)cc2)CC1	0.66	1.6
12	Cc1nc(C(F)(F)F)c(C(N)=O)s1	-0.15	.
13	CC(=O)O/N=C/c1ccc(N(C)C)cc1	0.62	-1.8
14	CC1=NN(C2=NS(=O)(=O)c3ccccc32)C(C)(O)C1 (stereo unspecified)	-1.1	0.6
15	Cc1noc(C)c1COC(=O)c1cccnc1SCC(=O)Nc1ccc2c(c1)OCO2	.	0.9
16	Cc1ccc(S(=O)(=O)CCC(=O)OCc2nnc(-c3ccccc3Br)o2)cc1	.	-1.2
17	NNC(=O)CO/N=C/c1ccc(Cl)cc1Cl	0.38	1.4
18	CCC(=O)N1CCN(CCN=CC2=C(O)CC(c3ccccc3)CC2=O)CC1 (stereo unspecified)	0.027	0.7
19	O=C(CNS(=O)(=O)/C=C/c1ccccc1)OC1CCOC1=O (stereo unspecified)	.	-0.8
20	N#Cc1c(-c2ccccc2)cc(-c2cccs2)nc1SCS(=O)Cc1ccccc1 (stereo unspecified)	.	2.5
21	Nc1cc(C(=O)c2ccccc2)ccc1N1CCOCC1	-0.084	-1.4
22	CC1CCCC(C)N1Cn1nc(-c2ccccc2)n(-c2ccccc2)c1=S (stereo unspecified)	.	0.7
23	C=CCn1c(CCNC(=O)c2cccs2)nnc1SCC(=O)Nc1cccc(F)c1	-0.36	-2.3
24	O=C1CSC(c2ccccc2)N1c1ccc(Cl)cc1 (stereo unspecified)	.	0.2
25	C=CCOC(=O)C1=C(C)Nc2[nH]c(=O)[nH]c(=O)c2C1c1ccc(O)cc1 (stereo unspecified)	.	1.2

# Compounds listed so far with a thiophene ring, fused or not, in the order listed:
cpd	Compound	KSHV LANA nucl	Ab BasE inh
8	Cc1cc(C(=O)CSc2ccccn2)c(C)n1Cc1cccs1	.	0.6
20	N#Cc1c(-c2ccccc2)cc(-c2cccs2)nc1SCS(=O)Cc1ccccc1 (stereo unspecified)	.	2.5
23	C=CCn1c(CCNC(=O)c2cccs2)nnc1SCC(=O)Nc1cccc(F)c1	-0.36	-2.3

# New compounds follow:
cpd	Compound	KSHV LANA nucl	Ab BasE inh
26	CCCc1cc(=O)n(-c2ccc(C(=O)O)cc2)[nH]1	0.037	-0.1
27	CC(C)=CCCC1=NN(C=O)C(C)(CCC=C(C)C)C1 (stereo unspecified)	.	-0.2
28	O=C1OC(c2nn3c(-c4ccco4)nnc3s2)Cc2ccccc21 (stereo unspecified)	1.4	-2.1
29	Fc1ccc2c(c1)[C@H]1OCC[C@H]1[C@@H](c1ccco1)N2	0.54	2.3
30	CNC(=O)CN1C(=O)c2ccccc2S1(=O)=O	.	-1.0
31	COc1cc(C(=O)Nc2ccc(S(=O)(=O)NC(C)C)cc2)cc(OC)c1OC	0.92	-1.2
32	CCc1ccc(Oc2coc3cc(OC(C)C(=O)OC(C)C)ccc3c2=O)cc1 (stereo unspecified)	.	1.2
33	CSc1nc(N/C=C2/C(=O)c3ccccc3N(C)S2(=O)=O)nc(C2CC2)n1	0.034	0.7
34	S=C(NCCN1CCOCC1)NCc1ccc2c(c1)OCO2	.	1.7
35	CN(C(=O)C1CCCCC1)c1nc(-c2ccc(Cl)s2)cs1	.	1.8
36	CN(C)/C=N/c1ncc(-c2ccc(Br)s2)s1	1.6	.
37	CCC(C)n1nccc1NC(=O)C(C)OC(=O)c1cc2ccccc2[nH]1 (stereo unspecified)	.	1.6
38	O=C(O)c1cccnc1OCc1ccccc1	0.5	-0.5
39	CCCCn1c(NC(=O)c2ccccc2)c(C#N)c2nc3ccccc3nc21	.	-12
40	C=C1C(C(=O)Nc2ccccc2N2CCOCC2)C1C(=O)Nc1ccccc1N1CCOCC1 (stereo unspecified)	.	3.2
41	O=C(O)c1cc(-c2ccc(O)c(O)c2)nc2n[nH]c(-c3ccc(F)cc3)c12	-0.27	41*
42	CCN(CC)CC(O)COc1ccc2c(c1)OCO2 (stereo unspecified)	.	-0.4
43	O=C(/C=C/c1ccc(F)cc1)NC(=S)NN1CCOCC1	0.92	1.3
44	CN(CC(N)=O)S(=O)(=O)c1ccc(F)cc1	-1.1	1.3
45	CC(C)(C)N(Cc1ccccc1)C(=O)CSc1nnc(CNc2ccc(F)cc2)o1	-0.41	2.3
46	CCOC(=O)N1CCC(N2C(=O)c3ccc(C(=O)NC4CCCCCC4)cc3C2=O)CC1	0.17	1.0
47	CC(=O)N1CC(C)Oc2ccc(S(=O)(=O)Nc3ccc(OC(F)(F)F)cc3)cc21 (stereo unspecified)	-2.1	0.5
48	CCOC(=O)c1noc2c1CCc1sccc1-2	-0.26	1.1
49	O=C1C2C3C=CC(C3)C2C(=O)N1CCN1CCCC1 (stereo unspecified)	0.28	-1.9
50	CC1CN(Cc2c(O)ccc3c2oc(=O)c2ccccc23)CC(C)O1 (stereo unspecified)	.	1.3
51	Cc1cc(=O)n2nc(N3CCCC(C(=O)NC4CCN(Cc5ccccc5)CC4)C3)sc2n1 (stereo unspecified)	-2.2	-1.3
52	O=c1c2c([nH]c3ccccc13)CCCCC2	0.076	1.8
53	CN(c1ccccc1)S(=O)(=O)c1ccc(C(=O)Nc2nnc(C(F)(F)F)o2)cc1	1.4	0.2
54	O=S(=O)(Nc1cccnc1)c1ccc(C2CCCCC2)cc1	-0.93	2.2
55	NC(=O)C1CCN(c2c3c(nc4nncn24)CCC3)CC1	-0.16	0.9
56	Cn1nc(OC(C)(C)C(=O)Oc2ccc(Cl)cc2Cl)cc1C(F)(F)F	.	3.5
57	O=C(CSc1nc2[nH]c(=O)cc(O)c2s1)NCc1ccccc1	-0.22	-3.0
58	O=C(O)C1CSC2(CCN(Cc3ccccc3)CC2)N1 (stereo unspecified)	-0.16	3.1
59	CCN(c1ccccc1)S(=O)(=O)c1ccc2[nH]c(=O)c(=O)[nH]c2c1	0.087	-0.3
60	O=C(Oc1cccc2cccnc12)c1cn(-c2ccccc2)nc1-c1ccccc1	.	0.3
61	Cc1ccc(C(C)NC(=O)c2ccc3c(c2)OCO3)cc1C (stereo unspecified)	0.36	5.0
62	Cc1ccc(-n2c(C)cc(/C=C3\SC(=O)NC3=O)c2C)cc1	1.1	2.0
63	O=c1c(-[n+]2ccccc2)cc2[nH]c3ccccc3c2n1-c1ccccc1	.	-0.2
64	COc1ccc(C(=O)N/C(=C\c2cn(S(=O)(=O)N(C)C)c3ccccc23)C(=O)NCc2ccco2)cc1	0.037	-1.6
65	CC1CCCC(C)N1C(=O)COC(=O)c1ccc(Br)cc1 (stereo unspecified)	.	1.2
66	O=C(Nc1ccccc1C(=O)N1CCCC1)Oc1ccccc1	-0.15	1.9
67	CSC1=NCCN1C(=O)c1ccc(C(F)(F)F)cc1	-0.15	1.4
68	C=C(C)Cn1c(N2CC(C)CC(C)C2)nc2c1c(=O)n(C)c(=O)n2C (stereo unspecified)	-0.4	1.3
69	O=C(N/N=C/c1nc2ccccc2[nH]1)c1ccccc1	-0.11	2.5
70	Cc1ccc(CCNC(=O)C2CCN(S(=O)(=O)N3CCOCC3)CC2)cc1	0.33	0.1
71	O=C(O)CCCC(=O)Nc1nc(-c2ccc(F)cc2)cs1	0.11	3.6
72	C=CCn1c(SCc2cc(=O)n3ccsc3n2)nnc1C1CCCCC1	.	1.3
73	c1ccc(Cn2c(CN3CCCC3)nc3ccccc32)cc1	2.9	-3.3
74	Cc1nc(C(F)(F)F)ccc1C(=O)N1CCN(c2nc3ccc(Cl)cc3s2)CC1	.	1.5
75	O=C1OC2(CCCCC2)OC(=O)C1=Cc1ccc(-c2ccc(C(=O)O)cc2)o1	0.22	1.9

# Remaining list, next part:
cpd	Compound	KSHV LANA nucl	Ab BasE inh
76	O=C(Nc1ncnc2sc3c(c12)CCCCC3)c1ccc(F)cc1	.	1.8
77	COCc1c(C(N)=O)nnn1-c1nonc1N	0.1	0.2
78	CCN(CC)S(=O)(=O)c1cccc(C(=O)OCc2nc3ccccc3s2)c1	.	0.3
79	N=C(N)N1CCOCC1	0.21	-0.6
80	COc1ccc(-c2nnc(SCC(=O)NC3CCCc4ccccc43)o2)cc1OC (stereo unspecified)	.	-0.2
81	CC(C)c1cccc(O)c(=O)c1	-0.26	1.3
82	CC(=O)NC1=NC(=O)/C(=C\c2cccs2)N1C	.	2.6
83	N#Cc1cccc(NC(=O)CNC(=O)Cc2ccccc2)c1	.	1.8
84	O=[n+]1cc(-c2ccccc2)n([O-])c2c1CCCC2	.	0.3
85	CN(C)/N=C(\Cn1nnc(N2CCCC2)n1)c1ccc(Cl)cc1	.	-1.3
86	O=S(=O)(NC1CCCCC1n1cc(-c2ccccc2)nn1)c1ccc(Cl)cc1 (stereo unspecified)	.	0.7
87	COc1ccc(C2CC(=O)C3=C(C2)Nc2ccccc2N(C(=O)C2CC2)C3c2cccnc2)cc1OC (stereo unspecified)	-0.65	-2.2
88	Cc1ccc(C(=O)CSc2nc3ccccc3c(=O)n2Cc2ccco2)cc1	0.41	1.2
89	Cc1nc(SC(C)C(=O)NCc2ccc3c(c2)OCO3)c2cnn(-c3ccccc3)c2n1 (stereo unspecified)	.	1.7
90	CC(C)(C)Nc1ncnc2c1cnn2-c1ccccc1	-0.31	-1.0
91	CN(CC(=O)Nc1ccc(S(=O)(=O)N(C)C)cc1)Cc1ccc(C(F)(F)F)cc1	.	-1.4
92	NS(=O)(=O)c1ccc(CCNC(=O)c2ccco2)cc1	.	-0.5
93	O=C(O)c1ccccc1C(=O)c1ccc2c(c1)OCCO2	.	1.0
94	O=[n+]1c2c(n([O-])c3c1CCCC3)CCCC2	-0.22	-1.3
95	C[N+](C)(C)CCOc1ccc2nc(N)sc2c1	.	-1.7
96	Nc1nc(CN2CCCCC2)nc2ccccc12	.	-0.1
97	CCOC(=O)C1=NNC2C(=O)N(Cc3ccccc3)C(=O)C12 (stereo unspecified)	0.91	-3.6
98	CCCOc1ccc(C(F)(F)F)cc1NC(=O)CN1CSCC1=O	.	3.7
99	Cc1ccc(S(=O)(=O)NCc2csc(C)n2)c(C)c1	2.9	-1.6
100	CCOC(=O)c1sc(N)c(C(=O)OCC)c1CSc1nncs1	.	-0.4
101	c1nc(N2CCCC2)c2c3c(sc2n1)CCCC3	.	1.9
102	COc1ccc(-c2nc3ccccc3c(=O)n2CCN2CCOCC2)cc1	-0.58	0.4
103	C=CCn1c(SCC(=O)Nc2ccc(C)cc2)nnc1C1CC1	.	1.9
104	CCn1c(-c2ccco2)nn(CN2CCN(S(=O)(=O)/C=C/c3ccccc3)CC2)c1=S	.	1.4
105	Clc1ccc(N=Cc2c(-c3ccccc3)nc3n2CCS3)cc1	-0.9	3.0
106	N#Cc1c(N2CCCC2)n[nH]c1N	.	3.2
107	COCCN(Cc1nnc(-c2cccs2)o1)C(=O)c1cc(Cl)c(OC(C)C)c(OC)c1	.	-0.2
108	NC(=O)CSc1nnc(-c2ccccc2)n1-c1ccccc1	-0.52	-1.8
109	COc1cccc(CC(NC(C)=O)C(=O)NC2CCN(c3nc(C)cc(C)n3)CC2)c1OC (stereo unspecified)	-0.55	0.5
110	O=S(=O)(c1ccccc1)c1cnc2ccccc2c1N1CCCC1	0.11	0.5
111	O=c1c(Cl)c(Cl)cnn1CN1CCCC1c1nc2ccccc2s1 (stereo unspecified)	.	1.2
112	COc1ccccc1NC(=O)C1C(=O)CNC23CCCCC2C1c1ccccc1O3 (stereo unspecified)	-0.47	0.1
113	Cc1nc2c3cc(F)ccc3n(CCN3CCOCC3)c2s1	-1.2	-3.4
114	COc1ccc(-c2cc(NC(=O)N3CCc4ccccc4C3)c3ccccc3n2)cc1	.	1.8
115	CC(C)(C)c1[nH]nc2c1C(c1ccc(OC(=O)c3ccccc3Cl)cc1)C(C#N)=C(N)O2 (stereo unspecified)	.	-5.7
116	O=C(O)CSCC(=O)Nc1cccc(O)c1	-0.21	5.6
117	O=C1NC(=S)NC(=O)C1=CN1CCc2ccccc2C1	0.38	-0.9
118	CC(=O)N1CCC(c2ccc(Cl)cc2)=N1	-0.091	3.5
119	COC(=O)c1ccccc1NC(=O)COc1ccc(OC)cc1	.	-1.2
120	CC1(C)Cc2cccc(C(=O)N3CCC(O)(c4ccc(Cl)cc4)CC3)c2O1	-1.5	.
121	O=C(NCCc1ccccc1)c1cc2ccccc2o1	1.3	0.3

# 4 entries from above, with two lines to a compound:
# Fields – KSHV LANA nucl, Ab BasE inh
101: c1nc(N2CCCC2)c2c3c(sc2n1)CCCC3
→ ., 1.9
102: COc1ccc(-c2nc3ccccc3c(=O)n2CCN2CCOCC2)cc1
→ -0.58, 0.4
103: C=CCn1c(SCC(=O)Nc2ccc(C)cc2)nnc1C1CC1
→ ., 1.9
104: CCn1c(-c2ccco2)nn(CN2CCN(S(=O)(=O)/C=C/c3ccccc3)CC2)c1=S
→ ., 1.4
